Source: PubChem (Fisher Drug Discovery Resource Center)
NPYLR7 ag: agonists of mosquito NPYLR7 receptor, primary screen, cell-based, Aedes aegypti, calcium fluorescence, mosquito biting behavior; Aedes aegypti neuropeptide Y-like receptor 7 (NPYLR7); HEK293T NPYLR7/Galpha15, GCaMP6s calcium fluorescence; activation, % at 10 µM; hit rate 0.15% among 270,000; in the data active = activation above about 40%;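 note: 0% = vehicle and 100% = reference agonist at the receptor; some compounds past the cut are filed as inactive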
NPYLR7 ag max-min: recorded beside NPYLR7 ag, whose call it bears; activation, %; measured here: Max-Min RFU normalised activation; some inactives read as strong as hits;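 span of the calcium signal over five minutes; 0% = vehicle and 100% = native peptide agonist; compound fluorescence can raise it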
Starred values were filed as active, the others as inactive; & = joins results of further samples.

SMILES	NPYLR7 ag	NPYLR7 ag max-min
CSCCC(=O)N1CCCC(N(C)CCc2ccccc2)C1 (centres undefined)	4&8	2&6
CC1CCCC(NC(=O)Cn2cc([N+](=O)[O-])ccc2=O)C1C (centres undefined)	6	5
CN1CCc2cccc3c2C1Cc1ccc(O)c(O)c1-3 (centres undefined)	-7&4&2	-13&2&-6
CCNC(=O)N(Cc1ccc(F)cc1)Cc1cc(NC(=O)c2cccc(F)c2)ccc1N(C)C	0	3
CCOc1ccc2nc(SCC(=O)Nc3ccccc3C(N)=O)sc2c1	-4	-10
CSCCNc1nc2nonc2nc1N1CCCCCC1	9	3
Cc1noc(C)c1C(=O)N(C)CC(=O)Nc1ccc(Cl)cc1	-4	-8
CO[C@H]1CN(C(C)C)C[C@@H]1NC(=O)c1cccc(NCc2ccccn2)c1C	5	7
Cc1ccccc1-c1nc(CN2CCN(c3ncccc3C(N)=O)CC2)c(C)o1	-2	-4
O=c1c(C=NCc2ccco2)c(NCc2ccco2)nc2ccccn12	-3	-3
COc1ccc(C(C)(C)C)cc1NC(=O)CN1CCSC1=O	-3	-4
CCOC(=O)c1sc(N)c(C(N)=O)c1C	1	8
Fc1ccccc1-c1n[nH]c2c1CN(Cc1ccc3nonc3c1)CC2	3	1
CC(CC(=O)OC(C)(C)C)NC(=O)c1csc(-c2ncccn2)n1 (centres undefined)	6	4
COC(=O)CSc1nnc(C)c2cnn(-c3ccc(C)c(C)c3)c12	-15	-20
Cc1cc(F)ccc1CCNC(=O)NCc1noc(C(C)(C)C)n1	2	0
O=C(CCn1c(=O)oc2ccccc21)NCCc1c[nH]c2ccc(O)cc12	-6	-10
Nc1nc(N)nc(COC(=O)c2cc(F)ccc2Br)n1	4	2
O=c1[nH]cnc2cc(F)ccc12	4	4
CC(C)c1nnc(CN2CCCC3(CC2)CN(C)C(=O)O3)o1 (centres undefined)	28	14
COCCCN(CC(=O)N(CCc1c[nH]c2ccccc12)Cc1ccc(F)cc1)C(=O)c1cccc(OC)c1	-1	-11
O=C(NCCC(=O)N1CCCC1)c1ccc(F)cc1OC(F)F	5	3
CCOC(=O)CCCC(=O)N1CCN(c2cc(S(=O)(=O)N3CCOCC3)ccc2OC)CC1	23	10
O=C(CN1CCC(c2ccccc2)CC1)N1CC(c2cccnc2)C1	2	1
C=C(C)Cn1c(C)nc2ccccc21	4	8
CC(=O)Nc1ccc(SCC2CCCO2)cc1 (centres undefined)	13	7
O=C(O)C1CC(=O)N(Cc2ccco2)C1 (centres undefined)	16	15
CCCCn1c2c(c(=O)n(C)c1=O)C(CC(=O)NCc1ccc(C)cc1)C(=O)N2 (centres undefined)	-7	-8
CC(C)NC(=O)c1nnc2n1CCN(C(=O)c1ccc3sccc3c1)C2	5	5
CC(C)NC(=O)N(Cc1ccco1)Cc1cc(NC(=O)c2ccccc2Cl)ccc1N(C)C	-6	4
CC(=O)N1CCN(C(=O)c2cc(-c3ccccc3)nc3cc(C(C)(C)C)nn23)CC1	9	13
COc1ccc(-c2cc(C(=O)N3CCN(c4cccc(C(F)(F)F)c4)CC3)n(-c3ccccc3Cl)n2)c(OC)c1	5	16
CNc1nc(-c2cccc(C(=O)N(C)C)c2)cn2ccnc12	-3	-4
O=C(Nc1cc(-c2ccc(Cl)cc2)nn1-c1cc(Cl)ccc1Cl)c1ccc(OC(F)(F)F)cc1	12	0
CCNC(=S)N1CCn2cccc2C1c1ccc(F)cc1 (centres undefined)	0	-1
COc1ccc(-c2noc(CSc3nc4ccccc4o3)n2)cc1OC	0	-2
O=C(Nc1ccc(-c2cscn2)cc1)C1CCCN(C(=O)CC2=CCCCC2)C1 (centres undefined)	0	-2
CC(C)=CC(=O)NS(=O)(=O)CC(C)C	22	11
Clc1ccc(OCCn2c(SCc3nc4ccccc4[nH]3)nc3ccccc32)cc1	-4	-13
CC(=O)c1cccc(NC(=O)c2cn(C)c3c(=O)n(-c4ccc(C)cc4)c(=O)[nH]c23)c1	7	9
COc1ccc2c(c1)c(CC(=O)N1CCOCC1)c(C)n2C(=O)c1ccc(Cl)cc1	-14	-16
COc1cccc(COC(CN2CCN(S(=O)(=O)c3c(C)nn(C)c3Cl)CC2)c2ccc(Cl)cc2)c1 (centres undefined)	27	15
COc1ccc(-n2nnc(C(=O)OCc3cccc(F)c3)c2C)cc1Cl	12	7
O=C(c1cc2cc(Cl)ccc2oc1=O)N1CCN(c2ccccc2)CC1	7	6
O=C1c2ccccc2C(=O)N1CCCCNc1ccc(F)cc1F	-15	-18
CC(NC(=O)C1CCCN(C(=O)Nc2ccccc2)C1)c1nnc2ccccn12 (centres undefined)	-2	12
COc1cc2c(cc1CN1CCN(c3ncccc3C)CC1)OCO2	-8	-11
COc1c(C)cnc2c1c(=O)n(CC(=O)N1CCOCC1)c(=O)n2C	1	-1
Cc1ccc2[nH]c(=O)c(CN(Cc3c(C)nn(C)c3C)C3CC3)cc2c1	1	6
O=C(CCCN1C(=O)c2ccccc2C1=O)N1CCC(=Cc2ccccc2F)CC1	-7	-9
CCOc1ccc2nc(N3CCCC(NCCCn4nnc5ccccc54)CC3)nc(C)c2c1 (centres undefined)	24	12
Cc1cccc(-c2ncc(CNCCCC3CCOC3)cn2)c1 (centres undefined)	-4	-9
CCOC(=O)C1CCCCN1CC(=O)N1N=C(c2ccc(OC)cc2)CC1c1ccccc1C (centres undefined)	-9	-7
CCc1ccc(NC(=O)N2CCC3(CC2)SCCN3C(=O)c2ccc(OC)cc2)cc1	-3	-8
O=C(NCc1nnc2n1CCC2)Nc1sc2ccccc2c1Cl	12	8
O=C(c1cccc(F)c1)N(Cc1ccc(C(F)(F)F)cc1)CC1CC(c2ccccc2Cl)=NO1 (centres undefined)	-2	5
CC(C)CCN(CCC#N)Cc1ncc(Cl)n1C	0	0
CCOC(=O)CSc1nnc(-c2cccc(C)c2)n1-c1cccc(C)c1	-3	6
O=C1CSC(c2ccc3c(c2)OCO3)N1 (centres undefined)	3	1
CC(NCc1ccc(N(C)CCO)cc1)c1ccc2c(c1)CCCC2 (centres undefined)	0	-1

Additional records:
SMILES	NPYLR7 ag	NPYLR7 ag max-min
COCC(=O)Nc1ccc(N(C)C)c(CN(Cc2ccco2)C(=O)COC)c1	15	16
Fc1ccc2c(c1)sc1nc(-c3ccc(Cl)s3)cn12	1	-3
Cn1cc(S(=O)(=O)NC2CCCCC2)c(=O)n(C)c1=O	-1	-1
Nc1cc(=O)[nH]c(SCCSc2cc(Cl)ccc2Cl)n1	-2	-2
COc1cc(-c2nccn2CCn2cccn2)cc2c1OCO2	0	-8
CCCCCCCCCCCCC[N+](C)(C)Cc1ccccc1	-5&-15	-11&-24
Clc1ccc(Cc2nc3c4c(ncn3n2)CCC4)cc1	5	4
CCCCSc1nnc(C)c(=O)[nH]1	-1&7	5&16
CN(C)c1ccc(P(=O)(OCc2ccccc2)C(O)c2ccc(Br)cc2)cc1 (centres undefined)	1	8
CCOC(=O)c1ccc(OC2CC3CCC(C2)N3C(=O)c2ccc(CSc3nc4ccccc4o3)cc2)cc1 (centres undefined)	-21	-16
Cc1ccc2nc(N(Cc3cccnc3)C(=O)c3ccco3)sc2c1	-9	-9
CN1C(=O)C(=Cc2ccc(O)cc2)SC1=S	18	19
CC(=O)Nn1c(C)ccc1C	25	24
Nc1ncc(-c2cccc3ccnn23)cn1	4	0
COc1ccccc1Cn1ccnc1-c1ccc(NC(C)=O)cc1	7	0
CCN1CCCC1CN(CC1CCN(CCOC)CC1)C(=O)c1cnc(C)cn1 (centres undefined)	7	3
C=CCNc1nnc(Sc2ccc(C(F)(F)F)cn2)s1	5	2
Cc1cccc(NC(=O)CCc2c(C)nn(-c3nc(C)c(C)c(=O)[nH]3)c2C)c1C	7	2
O=C(C1CCCC1)N(Cc1nccn1Cc1ccc(F)cc1)CC1CCCO1 (centres undefined)	5	7
O=C(CC1CC1)NC1CCc2[nH]c3ccc(Br)cc3c2C1 (centres undefined)	26	18
Cn1c(=O)c2c(SCC(=O)Nc3nccs3)nc(-c3ccc(F)cc3)nc2n(C)c1=O	9	9
COc1ccc(-c2cccc(NC(C)=O)c2)cn1	5	1
CC(Oc1ccc(C(C)(C)C)cc1)C(=O)N1CCNC(=O)C1 (centres undefined)	-2&3	1&1
Cc1c(C)n2c3c(=O)n(C)c(=O)n(C)c3nc2n1CCN1CCC(C)CC1	-5	-6
CC(c1ccccc1)N(Cc1cccc(F)c1)Cc1nc(C(=O)N2CCCCC2)co1 (centres undefined)	18	16
Cc1cc(I)cc(C(=O)O)c1C	1	1
COCOc1ccc(-c2ncc(OC)nc2NC(=O)c2cc(C)oc2C)cc1	11	-1
COc1ccc(CCNC(=O)c2ccccc2N2CCC(NC(=O)Nc3cccc(Cl)c3)CC2)cc1	8	10
Brc1ccc2c(c1)C1(CCCC1)CN2Cc1nnc(C2CC2)o1	3	3
Cc1cccc(Oc2cc(N3CCN(C(=O)c4ccc(Cl)cc4Cl)C(C)C3)ncn2)c1 (centres undefined)	-7	-4
COc1cc(C=C2C(=O)NC(=S)NC2=O)ccc1OS(=O)(=O)c1ccccc1	-4	-9
Cc1ccc(C(=O)O)s1	1	5
CCn1nc(C)c(NC(=O)CNCc2ccc3c(c2)OCO3)c1C	3	7
Cc1ccc(CC(=O)N(CCO)Cc2ccccc2C)cc1	7	3
Cc1c(C(=O)Nc2cccc(N3CCOC3=O)c2)cnn1C	2	2
CN1CCC(Nc2ccccc2NC(=O)c2ccc(F)cc2)CC1	12	5
Cc1c(-c2cc(C(=O)N(CC3CC3)C(C)C)no2)cnn1C	-1	-6
COC(=O)C12CCC(C)(c3nc4ccccc4nc31)C2(C)C (centres undefined)	0	-1
Cc1ccccc1C(=O)N(CCCN1C(=O)c2cccc3cccc(c23)C1=O)c1ccc(C(C)(C)C)cc1	-3	-4
N=c1n(CCN2CCCCC2)c2ccccc2n1CC(O)c1ccc(Cl)c(Cl)c1 (centres undefined)	-19	-23
O=C(Nc1ccc(N2CCCC2=O)cc1)c1ccc(CN2CCOCC2)cc1	-1	2
CC1=C(c2ccccc2)C1c1nc(CC2CCN(C)CC2)no1 (centres undefined)	16	3
CCC(CC)C(=O)N1CCN(C(=O)c2cn(C(C)C)cc3c(=O)n(-c4ccccc4)nc2-3)CC1	1	-1
CC1(C)Cc2cccc(OCC(=O)NCc3nnnn3-c3ccc(Cl)cc3)c2O1	-1	-5
CC(C)c1nc(CC(=O)N(C)Cc2ccc(C3CC3C)o2)cs1 (centres undefined)	6	7
CC(C(=O)N1CCCC1)S(=O)(=O)c1nc2c(n1-c1ccccc1)CCCC2 (centres undefined)	2	12
Cc1ccsc1C1CC1C(=O)O (centres undefined)	0	-5
COCCN1C(=O)C2(SCCN2C(=O)c2cccs2)c2ccccc21 (centres undefined)	9	8
FC(F)(F)CCc1ccnc(NCc2noc(C3CCCC3)n2)n1	1	1
O=C(Cn1nc2c(c1NC(=O)c1ccccc1Cl)CSC2)NCCc1ccccc1	-3	4
CC(C)n1c(SCCc2ccccc2)nc2ccccc2c1=O	-1	7
CCCCN(CC(=O)N(CCc1c[nH]c2ccccc12)Cc1ccc(F)cc1)C(=O)c1ccc(C(F)(F)F)cc1	7	14
CC(=O)Oc1ccc2nc(CN3C(=O)c4ccccc4C3=O)oc(=O)c2c1	7	5
COc1ccc(NC(=O)c2cnn3ccccc23)c(NC(=O)C(C)C)c1	-4	-7
Cc1ccc(C(=O)N(C)Cc2ccco2)c(O)c1	1	0
CN(C)c1ccc(NP2(=O)C=C(c3ccccc3)OC(c3ccccc3)=C2)cc1	7	1
CCNC(=O)C1(C)CCCN(Cc2cccc3c(OC)cc(C(=O)OCC)cc23)C1 (centres undefined)	4	0
Cc1nc(CN(Cc2cccs2)c2ccc3c(c2)OCCO3)oc1C	8	1
CCc1ccccc1NC(=O)N(CCOC)Cc1nc(C(=O)NCCc2ccc(OC)c(OC)c2)cs1	17	18
CC(C)c1cc(Oc2ccc(Cl)cc2)nc(SCc2cccc(C#N)c2)n1	2	5
CC(NC(=O)c1ccc(Br)s1)C(=O)N(C)Cc1ccccc1C(F)(F)F (centres undefined)	-3	-6
COc1ccc(C(=O)NCCNC(=O)[C@H]2CCCN2C(=O)C(C)(C)CCl)cc1	25	26
Cn1cc(C(=O)N2CCC(n3nccc3NC(=O)C3CC3)CC2)cn1	9	3

An excerpt. The share of hits here may be higher or lower than overall.
